Assay outcomes (PubChem)
FGF22 binding – binders of human FGF22 protein, primary screen, FGF22 synaptogenesis inhibitor project, biophysical, thermal shift, single point. calls only at 9.99 µM. recombinant FGF22 thermal shift, SYPRO orange fluorescence; percent of sucrose octasulfate shift, DMSO zero. 1.5% of 340,000 active. AID 651658, 2012;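 active = melting point raised past a set limit in the mean and every replicate; three in four hits are not shown here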
Target sequence (Q9HCT0 whole entry, looked up): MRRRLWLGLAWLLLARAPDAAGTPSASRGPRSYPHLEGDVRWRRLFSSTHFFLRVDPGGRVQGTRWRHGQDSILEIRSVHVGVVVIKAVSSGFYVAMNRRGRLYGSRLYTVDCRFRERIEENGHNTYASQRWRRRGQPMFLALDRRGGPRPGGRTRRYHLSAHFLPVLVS
Calls only; i = inactive; + = active, no number. A portion of the library. The share of hits here may be higher or lower than overall.

SMILES	FGF22 binding
Cc1ccc(S(=O)(=O)Nc2ccc3c(c2)C(=O)N([C@H](C)CO)C[C@@H](C)[C@H](CN(C)Cc2ccc(Cl)c(Cl)c2)OCCCC[C@@H](C)O3)cc1	i
C[C@@H]1CN([C@@H](C)CO)C(=O)c2cc(NC(=O)Nc3ccc(F)cc3)ccc2O[C@@H]1CN(C)C(=O)Nc1cccc2ccccc12	i
COC(=O)C[C@H]1CC[C@@H]2[C@H](COc3ccc(NC(=O)Nc4ccc(C#N)cc4)cc3C(=O)N2C)O1	i
COCC#Cc1ccc2c(c1)O[C@@H](CN(C)C(=O)NC(C)C)[C@@H](C)CN([C@@H](C)CO)S2(=O)=O	i
C[C@H]1CN([C@@H](C)CO)C(=O)c2cc(-c3ccc(C#N)cc3)cnc2O[C@@H]1CN(C)C(=O)Nc1ccc(C(F)(F)F)cc1	i
COC(=O)C[C@H]1C=C[C@H](NS(=O)(=O)c2ccccc2F)[C@@H](CO)O1	i
CCCNC(=O)N1CC2(C1)CN(C(=O)Nc1ccc(F)cc1)[C@@H](CO)c1[nH]c3cc(OC)ccc3c12	i
COc1ccc(S(=O)(=O)N(C)C[C@@H]2Oc3ccc(NC(=O)Nc4ccccc4)cc3C(=O)N([C@@H](C)CO)C[C@H]2C)cc1	i
COc1ccc(NC(=O)N(C)C[C@H]2Oc3c(NS(=O)(=O)c4ccc(C)cc4)cccc3C(=O)N([C@H](C)CO)C[C@@H]2C)cc1	i
CCC(=O)N1[C@H](CO)[C@H](c2ccc(C3=CCCC3)cc2)C12CN(C(=O)COC)C2	i
C[C@H]1CN([C@@H](C)CO)S(=O)(=O)c2ccc(C#Cc3ccccc3F)cc2O[C@@H]1CN(C)C	i
C[C@@H]1CN([C@H](C)CO)C(=O)c2cc(NC(=O)c3ccccc3)ccc2O[C@@H](C)CCCCO[C@@H]1CN(C)Cc1ccccc1	i
C[C@H]1CN([C@@H](C)CO)S(=O)(=O)c2ccc(-c3cccnc3)cc2O[C@@H]1CN(C)C(=O)C1CCC1	i
COc1ccc(NC(=O)N(C)C[C@H]2OCCCC[C@H](C)Oc3ccc(NC(=O)c4ccccc4)cc3C(=O)N([C@@H](C)CO)C[C@@H]2C)cc1	i
C[C@H]1CN([C@@H](C)CO)C(=O)Cc2cc(NC(=O)CCC(F)(F)F)ccc2O[C@@H]1CN(C)Cc1ccc(C(=O)O)cc1	i
Cc1ccccc1-c1ccc2c(c1)O[C@H](CN(C)Cc1ccc(C(=O)O)cc1)[C@H](C)CN([C@@H](C)CO)S2(=O)=O	i
O=C(NCC[C@@H]1CC[C@H](NC(=O)C2CC2)[C@@H](CO)O1)Nc1ccc(C(F)(F)F)cc1	i
CCCNC(=O)N(C)C[C@H]1Oc2cc(C3=CCCC3)ccc2S(=O)(=O)N([C@H](C)CO)C[C@H]1C	i
CNC[C@@H]1OCCCC[C@@H](C)Oc2ccc(NS(=O)(=O)c3ccc(OC)cc3)cc2C(=O)N([C@H](C)CO)C[C@H]1C	i
C[C@H]1CN([C@@H](C)CO)C(=O)c2cccc(NS(=O)(=O)c3ccccc3)c2O[C@@H]1CN(C)Cc1ccc(C(=O)O)cc1	i
CNC[C@H]1OCCCC[C@@H](C)Oc2ccc(NC(=O)CCC(F)(F)F)cc2C(=O)N([C@H](C)CO)C[C@@H]1C	i
CC(C)C#Cc1ccc2c(c1)O[C@@H](CN(C)C(=O)c1ccccn1)[C@H](C)CN([C@H](C)CO)S2(=O)=O	i
COc1ccc(S(=O)(=O)Nc2ccc3c(c2)C(=O)N([C@H](C)CO)C[C@H](C)[C@H](CN(C)CC2CC2)OCCCC[C@H](C)O3)cc1	+
COc1ccc2c3c(n(C)c2c1)[C@@H](CO)N(C(=O)Nc1ccc(F)cc1)CC31CCN(S(=O)(=O)c2cccs2)CC1	i
CCCNC(=O)Nc1ccc2c(c1)OC[C@@H](C)N(C(C)=O)C[C@H](C)[C@H](OC)CN(C)C2=O	i

(further entries)
SMILES	FGF22 binding
COc1ccc(CN(C)C[C@H]2Oc3ccc(NC(=O)Nc4ccc(C(F)(F)F)cc4)cc3CC(=O)N([C@@H](C)CO)C[C@@H]2C)cc1	i
COc1ccccc1NC(=O)N1C[C@H](O)COC[C@@H]2O[C@@H](CC(=O)NCCc3ccccc3)CC[C@H]21	i
COc1ccc(-c2cn(CC[C@@H]3CC[C@@H](NC(=O)CCN4CCCCC4)[C@H](CO)O3)nn2)cc1	i
COc1ccc(NC(=O)N(C)C[C@@H]2Oc3ccc(NC(=O)Nc4ccc5c(c4)OCO5)cc3CC(=O)N([C@H](C)CO)C[C@H]2C)cc1	i
C[C@@H]1C=C(C(=O)N2CCCCCCC2)O[C@H](OCc2ccc(CO)cc2)C1	i
C[C@H]1CN([C@@H](C)CO)S(=O)(=O)c2ccc(-c3ccccc3)cc2O[C@@H]1CN(C)C(=O)CN(C)C	i
C[C@@H]1CN([C@H](C)CO)C(=O)c2cccc(NS(=O)(=O)c3ccc(Cl)cc3)c2O[C@H]1CN(C)C(=O)Nc1ccc2c(c1)OCO2	i
C[C@H]1CCCCO[C@@H](CN(C)CC2CCCCC2)[C@@H](C)CN([C@@H](C)CO)C(=O)c2cc(NC(=O)Nc3cccc4ccccc34)ccc2O1	i
C[C@H]1CN([C@@H](C)CO)C(=O)c2cc(-c3ccncc3)cnc2O[C@@H]1CN(C)CC1CCCCC1	i
C[C@@H]1CN([C@@H](C)CO)C(=O)c2cc(C3=CCCC3)cnc2O[C@H]1CN(C)Cc1cccc(F)c1	i
COc1ccc(NC(=O)Nc2ccc3c(c2)C(=O)N([C@H](C)CO)C[C@H](C)[C@H](CN(C)C)O3)cc1	i
CC(=O)N1[C@@H](CO)[C@@H](c2ccccc2)C12CN(C(=O)c1ccccc1)C2	i
C[C@@H]1CN([C@@H](C)CO)C(=O)Cc2cc(NC(=O)Cc3ccccc3)ccc2O[C@@H]1CN(C)Cc1ccc2c(c1)OCO2	i
CCCC#Cc1cnc2c(c1)C(=O)N([C@@H](C)CO)C[C@H](C)[C@H](CN(C)C(=O)Cc1ccncc1)O2	i
COc1ccc(S(=O)(=O)N[C@@H]2CC[C@@H](CC(=O)O)O[C@H]2CO)cc1	i
C[C@@H]1CN([C@H](C)CO)C(=O)c2cc(N(C)C)ccc2O[C@@H](C)CCCCO[C@@H]1CN(C)Cc1ccc(C(=O)O)cc1	i
CCNC(=O)C[C@H]1CC[C@H]2[C@@H](COC[C@@H](O)CN2Cc2ccc(Cl)c(Cl)c2)O1	i
CNC(=O)C[C@@H]1CC[C@@H]2[C@@H](COc3ccc(NC(=O)c4ccc(C(F)(F)F)cc4)cc3C(=O)N2C)O1	i
CNC[C@@H]1Oc2ccc(NC(=O)Cc3ccccc3)cc2C(=O)N([C@H](C)CO)C[C@@H]1C	i
CO[C@H]1CC[C@H]2CCOc3c(C#N)cccc3C(=O)N(C)[C@H](C)C(=O)N(C)C[C@@H]1O2	i
C#CCN([C@@H]1C(=O)N2[C@@H]1SC(C)(C)[C@@H]2C(=O)OC)[C@@H](/C=C/C1CC1)[C@H](O)Cc1ccccc1	i
O=C(C[C@@H]1C[C@H]2c3cc(NC(=O)NC4CCCCC4)ccc3O[C@H]2[C@@H](CO)O1)NCc1ccncc1	i
O=C(C[C@@H]1CC[C@@H]2[C@H](COC[C@H](O)CN2C(=O)Nc2cccc(F)c2)O1)NCc1ccccc1Cl	i
c1ccc(CN2[C@@H]3CNC[C@H]2C3c2ccc(-c3cccnc3)cc2)nc1 (stereo partly specified)	i
CC(=O)C1=C(C)N(Cc2ccc(Br)cc2)C(=S)NC1c1ccc(F)cc1 (stereo unspecified)	i

Additional results
SMILES	FGF22 binding
C[C@H](CO)N1C[C@H](C)[C@@H](CN(C)S(=O)(=O)c2ccccc2)Oc2c(NS(C)(=O)=O)cccc2C1=O	i
COc1cccc(NC(=O)C[C@@H]2CC[C@@H]3[C@H](COc4ccc(NC(=O)c5ccccc5F)cc4C(=O)N3C)O2)c1	i
C[C@H]1CN([C@@H](C)CO)C(=O)c2cc(-c3cccc(F)c3)cnc2O[C@@H]1CN(C)Cc1ccccc1	i
CC(C)NC(=O)Nc1ccc2c(c1)C(=O)N(C)[C@H]1CC[C@H](CC(=O)NCC(F)(F)F)O[C@@H]1CO2	i
C[C@@H]1CCCCO[C@H](CN(C)C(=O)C2CCCCC2)[C@H](C)CN([C@H](C)CO)C(=O)c2cc(NC(=O)Nc3cccc4ccccc34)ccc2O1	i
CN1CCN(C(=O)C[C@@H]2C[C@H]3c4cc(NC(=O)C5CCOCC5)ccc4O[C@H]3[C@@H](CO)O2)CC1	i
COc1ccc(CNC(=O)C[C@H]2CC[C@@H](NC(=O)c3ccc4c(c3)OCO4)[C@@H](CO)O2)cc1	i
O=C(Nc1ccccc1)N1CCCCN2[C@H](CO)[C@H](c3ccc(-c4ccncc4)cc3)[C@@H]2C1	i
CCNC(=O)C[C@@H]1CC[C@H]2[C@@H](COc3ccc(NC(=O)Nc4ccccc4OC)cc3C(=O)N2C)O1	i
O=C(N[C@H]1CC[C@@H](CC(=O)N2CCCCC2)O[C@@H]1CO)c1ccccn1	i
CCCN(C)C[C@@H]1OCc2cn(nn2)CCCC(=O)N([C@H](C)CO)C[C@@H]1C	i
CN1CCN(C(=O)C[C@@H]2CC[C@H]3[C@@H](COc4ccc(NC(=O)c5cccs5)cc4C(=O)N3C)O2)CC1	i
CO[C@H]1CN(C)C(=O)c2ccc(NC(=O)c3cc(C)on3)cc2OC[C@@H](C)N(C)C[C@H]1C	i
C[C@@H]1CCCCO[C@H](CN(C)S(=O)(=O)c2ccccc2)[C@@H](C)CN([C@@H](C)CO)C(=O)c2cc(NC(=O)Cc3ccccc3)ccc2O1	i
O=C(NCc1ccccc1)[C@@H]1CCCN1C(=O)[C@H]1CCCN1C(=O)c1cccs1	i
COc1ccc(CN(C)C[C@@H]2Oc3ccc(NC(=O)Nc4ccccc4)cc3CC(=O)N([C@H](C)CO)C[C@H]2C)cc1	i
O=C(C[C@@H]1CC[C@H]2[C@@H](COC[C@@H](O)CN2C(=O)Nc2ccc(F)cc2)O1)NCCc1ccccc1	i
CCNC(=O)C[C@H]1C=C[C@@H](NC(=O)C2CCOCC2)[C@H](CO)O1	i
O=C(Nc1ccc(F)cc1)N1CCCCN2[C@H](CO)[C@H](c3ccc(C4=CCCCC4)cc3)[C@@H]2C1	i
C[C@@H]1CCCCO[C@H](CN(C)C(=O)C2CCCCC2)[C@H](C)CN([C@@H](C)CO)C(=O)c2cc(NC(=O)CCCCCC(=O)Nc3ccccc3N)ccc2O1	i
C[C@@H]1CN([C@@H](C)CO)C(=O)c2cc(NC(=O)Cc3cn(C)c4ccccc34)ccc2O[C@H]1CN(C)S(=O)(=O)c1ccccc1	i
Cc1noc(C)c1NC(=O)N(C)C[C@@H]1Oc2c(NS(=O)(=O)c3ccc(F)cc3)cccc2C(=O)N([C@@H](C)CO)C[C@H]1C	i
CC(=O)N(C)C[C@H]1Oc2ncc(C3=CCCC3)cc2C(=O)N([C@H](C)CO)C[C@H]1C	i
C[C@H](CO)N1C[C@H](C)[C@@H](CN(C)C)Oc2ccc(NC(=O)CCC(F)(F)F)cc2C1=O	i
C[C@H](CO)N1C[C@H](C)[C@@H](CN(C)S(=O)(=O)c2cn(C)cn2)Oc2ccc(NS(=O)(=O)c3cccs3)cc2CC1=O	i

In a second layout: results already given.
Molecule,FGF22 binding
C[C@H]1CN([C@@H](C)CO)S(=O)(=O)c2ccc(-c3ccccc3)cc2O[C@@H]1CN(C)C(=O)CN(C)C,i
C[C@@H]1CN([C@H](C)CO)C(=O)c2cccc(NS(=O)(=O)c3ccc(Cl)cc3)c2O[C@H]1CN(C)C(=O)Nc1ccc2c(c1)OCO2,i
C[C@H]1CCCCO[C@@H](CN(C)CC2CCCCC2)[C@@H](C)CN([C@@H](C)CO)C(=O)c2cc(NC(=O)Nc3cccc4ccccc34)ccc2O1,i
C[C@H]1CN([C@@H](C)CO)C(=O)c2cc(-c3ccncc3)cnc2O[C@@H]1CN(C)CC1CCCCC1,i
C[C@@H]1CN([C@@H](C)CO)C(=O)c2cc(C3=CCCC3)cnc2O[C@H]1CN(C)Cc1cccc(F)c1,i
COc1ccc(NC(=O)Nc2ccc3c(c2)C(=O)N([C@H](C)CO)C[C@H](C)[C@H](CN(C)C)O3)cc1,i
CC(=O)N1[C@@H](CO)[C@@H](c2ccccc2)C12CN(C(=O)c1ccccc1)C2,i

The listing continues.
SMILES	FGF22 binding
C[C@@H]1CN([C@H](C)CO)C(=O)c2cc(-c3ccc(F)cc3)cnc2O[C@@H]1CN(C)S(C)(=O)=O	i
COc1ccc2c3c(n(C)c2c1)[C@@H](CO)N(C(=O)CN1CCOCC1)CC31CN(C(=O)C2CC2)C1	i
C[C@@H]1CCCCO[C@@H](CN(C)S(=O)(=O)c2ccc(F)cc2)[C@H](C)CN([C@H](C)CO)C(=O)c2cc(NC(=O)Nc3ccc4c(c3)OCO4)ccc2O1	i
C[C@H]1CN([C@@H](C)CO)C(=O)CCCn2nncc2CO[C@@H]1CN(C)C(=O)C1CCCCC1	i
COC(=O)C[C@H]1CC[C@@H]2[C@H](COC[C@@H](O)CN2C(=O)Nc2cccc(F)c2)O1	i
O=C(C[C@@H]1CC[C@@H]2[C@H](COC[C@H](O)CN2S(=O)(=O)c2ccc(Cl)cc2)O1)NCC1CCCCC1	i
C[C@@H]1CN([C@@H](C)CO)S(=O)(=O)c2ccc(C#Cc3ccccc3)cc2O[C@@H]1CN(C)C(=O)Cc1ccccn1	i
C[C@H]1CN([C@@H](C)CO)C(=O)c2cc(NS(=O)(=O)c3cn(C)cn3)ccc2O[C@@H]1CN(C)S(C)(=O)=O	i
CCCC#Cc1ccc2c(c1)O[C@@H](CN(C)C(=O)COC)[C@@H](C)CN([C@H](C)CO)S2(=O)=O	i

FGF22 binding: entries above that show a hit
SMILES	FGF22 binding
COc1ccc(S(=O)(=O)Nc2ccc3c(c2)C(=O)N([C@H](C)CO)C[C@H](C)[C@H](CN(C)CC2CC2)OCCCC[C@H](C)O3)cc1	+
